gsp antagonist: qHTS for Antagonists of gsp, the Etiologic Mutation Responsible for Fibrous Dysplasia/McCune-Albright Syndrome: qHTS; Potency, µM (titrated, usually from 76.9 µM), inactives show at the top dose activity change, negative = inhibition, hits mostly inhibitors; 340,000 compounds, 0.4% hits; gsp-mutant cells, cAMP HTRF, 30 min; control for the full effect not named in the record; active = falling curve of any shape with a large fitted effect; inconclusive = falling curve, mostly with a smaller effect; inactive = flat or rising curve; cell line not stated here;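 also: intracellular cAMP measured with PDE inhibitor Ro 20-1724 present during compound exposure; potency is read from the fitted curve at half-maximal effect; % is scaled to controls: 0 for no effect and ±100 for the full control effect; nearly all actives have a fitted effect of over 65% in size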
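G418-selected cells were plated in DMEM/10% FBS for 16-24 h at 37C, then treated with compounds plus the PDE inhibitor […] (300 uM solution added) for 30 min at 37C. Intracellular cAMP was measured by HTRF after 30 min lysis at room temperature.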
Sfp PPTase inh: qHTS Assay for Inhibitors of Bacillus subtilis Sfp phosphopantetheinyl transferase (PPTase) | Biochemical Sfp PPTase activity, qHTS | Potency, µM, inactives show max response, negative = inhibition, usual class: inhibitors | 310,000 compounds, 3.5% hits | AID 1490, 2009; active = well fitted inhibition curve with a large enough effect; inconclusive = small, poorly fitted or top-dose-only effect, or another doubt; inactive = no such curve, though single readings can be large or run the other way;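 also: the enzyme is Sfp with the accession as filed and its product quenches rhodamine fluorescence; potency is read from the fitted curve at half-maximal effect; 0% = enzyme reaction without inhibitor and -100% = no enzyme wells; top concentration of the series not given in the record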
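With Hepes-Na pH 7.6 buffer containing 10 mM MgCl2, Sfp (15 nM) modified BHQ-2-YbbR (12.5 uM) using rhodamine-CoA (5 uM). Two reads 30 minutes apart at 525/598 nm yielded each well's rate.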
Menin MLL FP FL: qHTS Assay for Inhibitors Targeting the Menin-MLL Interaction in MLL Related Leukemias: Competition With Fluorescein Labeled MLL-derived Peptide | 290,000 tested, under 10 active | FP activity change, % at 61.4 µM | Fluorescence polarization, fluorescein-MLL peptide displacement from menin | AID 1766, 2009; inconclusive = falling polarisation curve, or a change in total fluorescence; inactive = total fluorescence flat and polarisation flat or rising; no compound was filed as active; the % refers to the polarisation; negative = inhibition;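 also: % of control where 0% means no effect; inhibitors lower the polarisation; unlabelled MLL peptide was the positive control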
D2 PAM: Beta-Arrestin HTS for Positive Allosteric Modulators of the Human D2 Dopamine Receptor: Potentiators; AID 624464, 2012; DiscoveRx D2 beta-arrestin cells, luminescence, 90 min; 100% = 57 uM dopamine signal; 360,000 compounds, 0.23% hits; D(2) dopamine receptor (Homo sapiens), P14416; potentiation, % (concentration not given with the values); active = potentiation of 50% or more; inconclusive = 30% to 50%; inactive = 30% or less;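 also: tested on top of an EC20 dose of dopamine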
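PathHunter beta-arrestin assay in DiscoveRx D2 cells. Compounds were added with an EC20 of dopamine (50 nM final) for 90 min at 37 deg C. Luminescence was read 1 h after detection reagent, with 57 uM dopamine as the EC100 control.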
gsp ag: qHTS for Agonist of gsp, the Etiologic Mutation Responsible for Fibrous Dysplasia/McCune-Albright Syndrome: qHTS; gsp mutant cells, cAMP HTRF, 30 min; control for the full effect not named in the record; Potency, µM (top dose mostly 76.9 µM), without a hit: top-dose activation (cAMP increase), usual class: activators; 340,000 compounds, 0.13% hits; AID 624287, 2012; active = well fitted activation curve with a large enough effect; inconclusive = small, poorly fitted or top-dose-only effect, or another doubt; inactive = no such curve, though single readings can be large or run the other way; cell line not stated here;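 also: phosphodiesterase inhibitor Ro 20-1724 added with compounds to block cAMP breakdown; potency is read from the fitted curve at half-maximal effect; nearly all actives have a fitted effect of over 60% in size; about a fifth of the inactives were tested at one dose only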
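Cells in DMEM/10% FBS with G418 were pretreated with compounds in DMSO plus […] (300 uM stock) for 30 min at 37C. cAMP was measured by HTRF (cAMP-d2 plus anti-cAMP antibody-K) after 30 min at room temperature.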
TRPV1 potentiator: HTS Assay for Compounds that Act as Potentiators of the Vanilloid Receptor 1; 320,000 compounds, 0.02% hits; potentiation, % at 8.33 µM; Transient receptor potential cation channel subfamily V member 1 (Homo sapiens), Q8NER1; TRPV1-expressing cells, Fluo-8 calcium influx, capsaicin EC20 potentiation; host cell line not named in the record; control for the full effect not named in the record; active means potentiation above 80%; inconclusive means 30% to 80%; inactive means below 30%; also: 0% is about no effect
Target sequence (Q8NER1 whole entry, looked up): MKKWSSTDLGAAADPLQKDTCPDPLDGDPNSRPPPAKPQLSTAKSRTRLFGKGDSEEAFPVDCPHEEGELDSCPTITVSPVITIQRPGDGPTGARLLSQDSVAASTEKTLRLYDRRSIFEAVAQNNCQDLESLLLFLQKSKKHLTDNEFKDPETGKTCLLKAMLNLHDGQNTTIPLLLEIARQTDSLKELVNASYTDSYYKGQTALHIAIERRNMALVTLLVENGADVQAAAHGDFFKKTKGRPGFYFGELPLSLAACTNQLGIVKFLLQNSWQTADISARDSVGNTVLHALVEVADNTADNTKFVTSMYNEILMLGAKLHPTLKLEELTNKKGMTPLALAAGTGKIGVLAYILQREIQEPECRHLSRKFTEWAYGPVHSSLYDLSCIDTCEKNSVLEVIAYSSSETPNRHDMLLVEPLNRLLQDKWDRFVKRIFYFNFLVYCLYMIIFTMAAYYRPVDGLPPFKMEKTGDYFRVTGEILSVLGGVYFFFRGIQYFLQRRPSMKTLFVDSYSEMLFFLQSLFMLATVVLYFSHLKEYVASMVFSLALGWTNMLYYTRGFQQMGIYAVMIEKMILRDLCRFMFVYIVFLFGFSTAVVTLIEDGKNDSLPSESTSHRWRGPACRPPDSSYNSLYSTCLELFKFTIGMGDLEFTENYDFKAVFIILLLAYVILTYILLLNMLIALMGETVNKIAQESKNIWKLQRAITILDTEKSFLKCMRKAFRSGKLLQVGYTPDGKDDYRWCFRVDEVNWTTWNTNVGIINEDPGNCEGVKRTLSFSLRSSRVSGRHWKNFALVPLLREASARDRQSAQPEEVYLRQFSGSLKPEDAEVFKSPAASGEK
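Fluo-8 calcium influx in TRPV1-expressing cells, kinetic read (ex 480/em 520 nm). Compound added and read 3 min for agonist activity, followed by capsaicin at EC20 final and 2 min further read for enhancement.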
ClpP mod: qHTS Assay for Activators of ClpP; purified B. subtilis ClpP, FRET peptide cleavage, 20 min; ATP-dependent Clp protease proteolytic subunit (Bacillus subtilis (strain 168)), P80244; 340,000 compounds, 1.9% hits; Potency, µM (highest dose often 57.5 µM), inactives show at the highest dose activity change, negative = active; active = well fitted falling curve with a large enough effect; inconclusive = small, poorly fitted or top-dose-only effect; inactive = no such curve, though single readings can be large or run the other way; also: potency is read from the fitted curve at half-maximal effect; the source files actives as falling curves though it sought activators and does not explain the sign; nearly all actives have a fitted effect of over 65% in size; many hits overshoot -100%
Target sequence (P80244 whole entry, looked up): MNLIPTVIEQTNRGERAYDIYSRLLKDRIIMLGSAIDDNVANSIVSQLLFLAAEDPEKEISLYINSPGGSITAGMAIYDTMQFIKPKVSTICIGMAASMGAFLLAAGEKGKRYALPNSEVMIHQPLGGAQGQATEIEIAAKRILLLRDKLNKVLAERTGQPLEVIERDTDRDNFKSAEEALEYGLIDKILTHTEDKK
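Buffer: 100 mM Tris/HCl pH8, 100 mM KCl, 0.05% low protease BSA, 2.5% glycerol, 0.01% Tween-20. ClpP 10 microg/mL final; 20 min RT; delta FRET normalized to ADEP and DMSO controls.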
* hit, by the source's call; u = inconclusive; x = not tested or not shown; [ ] = dose if it differs, or a comment.

SMILES | gsp antagonist | Sfp PPTase inh | Menin MLL FP FL | D2 PAM | gsp ag | TRPV1 potentiator | ClpP mod
Nn1c(SCC(=O)Nc2ccc(F)cc2)nnc1-c1cccnc1 | 5% | 5% | 1.8 | -24 | -6% | 11 | 5.7%
O=S(=O)(NCCc1ccccc1)c1cccc(S(=O)(=O)N2CCOCC2)c1 | -1% | 19% | 1.5 | 9 | 11% | -4 | -1.7%
O=C(Nc1ccc(C(F)(F)F)cc1)N1CCN(C(=O)c2ccco2)CC1 | 6% | 7% | x | -8 | u | -12 | -0.8%
CC1CCN(C(=O)CSc2nc(=O)n3cc(Cl)ccc3n2)CC1 | 5% | x | x | 9 | 26%[15.4 µM] | 1 | x
CCCCCC1CC1C(=O)N/N=C/c1ccc(N(C)C)cc1 (stereo not given) | 13% | -16% | 0.8 | -1 | -28% | -22 | 35µM*
O=c1cc(Cl)c2ccccc2n1-c1ccccc1 | 0% | 4% | 1.9 | -3 | 41% | 18 | x
CCC(C)NC(=O)COC(=O)c1oc2ccccc2c1CSc1ccc(Cl)cc1 (stereo not given) | -5% | -9% | 4.8 | -10 | 25% | 6 | -2.7%
COc1ccc(OC)c(NC(=O)c2cc3c(cc2Cl)N2CCCCCC2=NS3(=O)=O)c1 | -6% | x | x | -10 | -7%[15.4 µM] | x | 1.3%
Cc1cccc(C(=O)OC(C)C(=O)NC(=O)NC2CCCCC2)c1O (stereo not given) | 15% | x | x | 7 | u | 19 | u
COc1ccc(C(C)(C)C)cc1NC(=O)COC(=O)c1cc(SC)ccc1Cl | -1% | u | 3.1 | -7 | -2%[15.4 µM] | 1 | x
Cn1c(Cc2c[nH]c3ccccc23)n[nH]c1=S | -7% | -7% | -0.9 | -19 | u | 3 | -1.8%
CN1CCN(Cc2ccc(-c3ccc(Cl)cc3)o2)CC1 | 5% | 5% | 0.3 | -18 | u | -6 | -7.9%
O=c1c2cccc3c2c(nn1-c1ccccc1)-c1ccccc1-3 | -6% | -5% | 4.1 | u | 29% | 15 | -4.3%
CN1OC(Cn2cc(C#N)c(=O)n(C)c2=O)CC1c1ccccc1 (stereo not given) | 3% | 17% | -1.7 | -1 | -4% | -8 | x
COc1ccc(/C=C(\NC(=O)c2ccc(OC)cc2)C(=O)NC(CCSC)C(=O)O)cc1 (stereo not given) | 2% | 24% | -1.2 | -23 | -1% | -1 | -0.8%
CC(=O)N1c2ccc(S(=O)(=O)N3c4ccccc4CC3C)cc2CC1C (stereo not given) | -3% | 2% | 0.3 | -10 | -26% | -3 | 1.7%
N#CCCNc1c(Cl)cc(Cl)cc1C(=O)O | 9% | -10% | 0.3 | 2 | 10% | 10 | 261%
Cc1ccc(C(=O)Nc2ccccc2C(=O)O)cc1S(=O)(=O)Nc1ccc(Br)cc1 | u | x | x | 0 | 10%[15.4 µM] | x | 0.6%
COc1cccc(CN2CCCC(C(=O)N3CCCCC3)C2)c1 (stereo not given) | -2% | -15% | 36[activator] | -6 | u | -15 | -1.4%
CCc1nnc(NC(=O)C(NC(=O)c2ccccc2Cl)C(C)C)s1 (stereo not given) | -7% | 8% | 3.1 | -4 | 16%[15.4 µM] | 11 | x
Cc1cc(C(=O)NCc2cccc(Cl)c2)c2ccccc2n1 | 2% | 0% | -1.5 | -5 | 24% | -4 | x
O=C(O)[C@H]1CCCN1S(=O)(=O)c1cccc2cccnc12 | 6% | x | x | -1 | -27% | 1 | -1.5%
O=[N+]([O-])c1cccc(/C=N/n2c(C3CCCCC3)n[nH]c2=S)c1 | -25% | 1% | 1.4 | -6 | -20% | 2 | 0.8%
Cc1c(C(=O)NN)sc(=S)n1C | -4% | u | 9.8 | -3 | 5%[15.4 µM] | -25 | -1.1%
Cc1cc(C)cc(N(CC(=O)NCc2cccnc2)S(C)(=O)=O)c1 | 6% | 6% | 1.9 | -4 | -12% | 6 | -0.8%
CC(=O)Nc1nonc1-c1nc2ccccc2n1CCC#N | -2% | 14% | -1.1 | -13 | -24% | 2 | u
COc1ncnc2c1ncn2CC1COC(C)(C)O1 (stereo not given) | 7% | x | x | 5 | 1%[15.4 µM] | x | -3.1%
CC(=O)C[C@@H](O)CC(=O)[C@@H]1OC(=O)[C@H](C)C/C=C\Cc2ccccc21 | 0% | x | x | 0 | x | x | -1.2%
CCC(COC(=O)c1ccccc1)Oc1cc(NCc2ccccc2)c2ncn(C(C)C)c2c1 (stereo not given) | -14% | x | x | 0 | 16% | x | -6.7%
O=S(=O)(c1ccc2ccccc2c1)N1CCC(c2nc(-c3ccncc3)no2)CC1 | -13% | -18% | -0.7 | -11 | 13% | -7 | -0.9%
O=C(N/N=C/c1coc2ccccc2c1=O)c1cc2ccccc2o1 | 19% | 9% | 3.6 | -10 | 9%[15.4 µM] | 24 | 0.2%
CC(C)(C)OC(=O)Nc1ncnc2c1ncn2C1OC(CO)C2OC(C)(C)OC21 (stereo not given) | -2% | 18% | 0.3 | -7 | -66%[inhibitor] | -7 | -3.4%
NS(=O)(=O)c1ccc(Oc2ccc(S(N)(=O)=O)cc2)cc1 | -1% | 22% | 2.1 | -5 | 9% | 5 | x
CC(C)CNC(=S)N1CCC(NC(=O)C23CC4CC(CC(C4)C2)C3)CC1 | -8% | 12% | -0.5 | 2 | 8% | -7 | 0.1%
Cc1cc(C)n(CC(O)COc2ccccc2C(=O)Nc2ccccc2)n1 (stereo not given) | -20% | 14% | 1.2 | -3 | u | -7 | 0.1%
Cc1cc(C)n(-c2ccc(C(=O)O)cc2)n1 | 4% | 5% | 0.0 | -12 | -4% | 0 | 0.3%
CC(C)C(c1nnnn1Cc1ccc(F)cc1)N1CCN(C2CCCCC2)CC1 (stereo not given) | 5% | 22% | -8.4 | -8 | -61%[inhibitor] | 2 | -0.6%
Cc1ccc(C(=S)N2CCN(Cc3ccccc3)CC2)cc1 | -7% | 11µM* | -12 | -11 | 3%[15.4 µM] | -7 | x
Nc1nc(NCCCN2CCOCC2)nc(Nc2ccccc2F)c1[N+](=O)[O-] | 15% | 6% | 0.0 | -20 | -22% | 19 | x
O=C1c2ccccc2C(=O)N1Cc1nc(-c2ccccc2)no1 | 3% | 9% | 3.0 | -4 | 37% | 0 | -1.1%
CC(C)(C)c1cc[n+](-c2[nH]c(=O)sc2/C=N/N=C(\[O-])c2cccnc2)cc1 | 5% | -15% | -2.5 | 4 | -5% | 21 | x
Cc1ccc(S(=O)(=O)c2nc(-c3ccc(F)cc3)oc2SCC(N)=O)cc1 | -14% | 1% | 1.0 | 12 | u | 2 | 2.5%
Cc1noc(C)c1C(=O)N1CCCC1 | 4% | 20% | 0.7 | 6 | 0% | 17 | -2.1%
CC(=O)NC1CC2CCCC(C1)N2C(=O)Nc1ccccc1 (stereo not given) | 4% | 14% | 1.4 | -14 | 11% | -2 | -0.9%
COc1cc(OC)cc(C(=O)Nc2ccc(C(=O)c3ccncc3)cc2)c1 | u | 1% | 4.0 | -10 | -1% | 9 | -1.2%
CCOC(=O)CNC(=O)C(=O)c1c(O)[nH]c2ccccc12 | -13% | 3% | 7.1 | 21 | -7% | -7 | -0.2%
CCOC(=O)C1CCN(C(=O)C2CCN(c3nc4ccc(OC)cc4s3)CC2)CC1 | -28% | -6% | 2.4 | 12 | 13% | -25 | 0.4%
Cc1onc(-c2ccccc2)c1-c1nnc(CN2CCN(S(=O)(=O)c3ccccc3)CC2)o1 | -20% | x | x | -9 | -24% | 4 | -2.2%
COc1cc(OC)c(NS(=O)(=O)c2cccc(C(=O)OCC(=O)NCC3CCCO3)c2)cc1Cl (stereo not given) | -17% | 6% | 5.9 | -1 | -24% | 5 | x
CCc1cccc(C)c1NC(=O)C1C2CCC(O2)C1C(=O)O (stereo not given) | 4% | 19% | 1.0 | 18 | 5% | 8 | 0.1%

New compounds follow.
SMILES | gsp antagonist | Sfp PPTase inh | Menin MLL FP FL | D2 PAM | gsp ag | TRPV1 potentiator | ClpP mod
O=C(c1ccccc1Br)N(Cc1ccccc1)c1ccccc1 | -17% | -3% | -17 | 5 | -5%[15.4 µM] | -17 | x
Fc1cccc(F)c1CSc1nc2ccccc2[nH]1 | 0% | 13% | -0.8 | 9 | -8% | -3 | -1.2%
CN(C)c1oc(-c2cccs2)nc1C#N | 1% | -11% | 2.9 | -8 | 14% | x | 0.8%
COc1ccc(/C=N/NC(=O)c2ccc(COc3ccccc3Cl)o2)cc1 | 0% | 6% | 5.4 | -13 | 7%[15.4 µM] | 2 | 3.2%
Clc1ccc(CSc2ccc(-c3cccnc3)nn2)cc1 | 4% | -2% | 5.2 | -7 | -4%[15.4 µM] | 10 | x
O=C(NCc1ccco1)c1ccc(NS(=O)(=O)c2cccc([N+](=O)[O-])c2)cc1 | -10% | 15% | -1.1 | 1 | -35% | 8 | x
O=C(Nc1ccccc1)c1ccc(CSc2ncccn2)cc1 | 0% | -3% | 1.8 | 4 | 0% | -10 | 1.5%
COc1ccc(OC)c(-c2cc(C(=O)N3CCN(c4ccccc4)CC3)no2)c1 | -12% | 12% | -0.3 | -2 | -41%[inhibitor] | x | u
Cc1cccc(NC(=O)CSCC(=O)NCc2cccc(C(F)(F)F)c2)c1 | -16% | 8% | x | -19 | 6% | -3 | -6.5%

Entries from the list above that contain bromine:
SMILES | gsp antagonist | Sfp PPTase inh | Menin MLL FP FL | D2 PAM | gsp ag | TRPV1 potentiator | ClpP mod
Cc1ccc(C(=O)Nc2ccccc2C(=O)O)cc1S(=O)(=O)Nc1ccc(Br)cc1 | u | x | x | 0 | 10%[15.4 µM] | x | 0.6%
O=C(c1ccccc1Br)N(Cc1ccccc1)c1ccccc1 | -17% | -3% | -17 | 5 | -5%[15.4 µM] | -17 | x

High-throughput results from PubChem.
